LANA-H2B inh – blockers of LANA interaction with H2A/H2B – biochemical, FP readout, HTS, primary screen | Protein LANA1 (Human herpesvirus 8 type P (isolate GK18)), Q9QR71 | inhibition, % (test concentration not listed) | cell-free LANA-H2A/H2B peptide, fluorescence polarization | AID 2629, 2010 | 320,000 compounds, 0.6% hits; in the data active = inhibition mostly above about 10%, no sharp cut-off; inactive = mostly below about 6.7%;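 note: stock transfer was 7.5 nL into about 10 µL; 0% = median of vehicle wells and 100% = median of positive control wells; one replicate is shown; the record names a cut of 25% in any replicate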
B2AR ag – beta2AR agonists driving receptor internalization, primary screen, cell-based, FAP fluorogen, flow cytometry. Am2.2-beta2AR cells; reference of the scale not given here. response, % (test concentration not listed). 340,000 compounds, 0.43% hits. AID 504454, 2011;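 active = response above a set limit, near 3 SD of response in nonfluorescent compounds, cut at about 42% in these data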;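 note: stock transfer was 100 nL into about 11 µL; a reference agonist was the positive control; negative values mostly stem from fluorescent compounds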
Target sequence (P07550 whole entry, looked up): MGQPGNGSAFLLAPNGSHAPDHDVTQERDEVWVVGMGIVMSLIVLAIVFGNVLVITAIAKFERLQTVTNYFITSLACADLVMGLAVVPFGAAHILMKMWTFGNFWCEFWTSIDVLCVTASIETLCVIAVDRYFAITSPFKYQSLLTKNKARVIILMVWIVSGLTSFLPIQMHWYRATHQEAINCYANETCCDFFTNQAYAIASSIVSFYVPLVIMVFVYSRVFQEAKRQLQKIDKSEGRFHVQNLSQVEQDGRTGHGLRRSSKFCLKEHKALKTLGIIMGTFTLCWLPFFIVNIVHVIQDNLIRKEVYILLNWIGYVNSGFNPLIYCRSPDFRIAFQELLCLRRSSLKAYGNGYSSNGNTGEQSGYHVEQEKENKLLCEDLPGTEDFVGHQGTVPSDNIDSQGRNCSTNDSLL
A1 inh – caspase 3/7 activation in MEF A1-2A-BIM cells, primary screen, A1 inhibitor project, cell-based, luminescence, HTS. Caspase-Glo 3/7 luminescence, 3 h; percent of clofoctol response, vehicle zero. caspase activation, % (no concentration beside the values). 330,000 compounds, 0.066% hits. AID 2462, 2010;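 active = over half of replicate activation scores above 10%, or exactly half above 10 with the replicate mean above 10; inconclusive = replicate mean below 10 yet half the replicates above 10; inactive = over half of replicates below 10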;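 note: wells of about 30 µL received 50 nL stock; many hits fall short of the cut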
Beta apoptosis – inhibitors of cytokine-induced beta cell apoptosis, primary screen, luminescence; INS-1E cytokine-induced death, ATP luminescence, 48 h; percent of positive-control rescue, neutral wells zero; protection from apoptosis, % (test concentration not listed); 300,000 compounds, 0.8% hits; AID 435005, 2010;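 active = all replicates at 75% or more, or half of them and the mean; inconclusive = half reach 75% but not the mean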;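 note: 0% = cytokine-treated negative control wells and 100% = positive control rescue; higher means more ATP so stronger rescue from cytokine killing; wells of about 40 µL received 100 nL stock; the first replicate is given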
T cruzi repl – inhibitors of intracellular T. cruzi growth, primary screen, luminescence, NIH3T3 host cells. T. cruzi beta-gal in NIH3T3, 90 h. inhibition, % (concentration not given with the values). 300,000 compounds, 1.4% hits. AID 1885, 2009;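 active = mean inhibition across valid replicates above about 55%, limit read from the data; inconclusive = mean below that limit but half or more replicates reach it; inactive = mean below it, under half of replicates reach it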;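 note: signal also drops with host cell toxicity which is not excluded here; 0% = plate median of DMSO wells and 100% = zero luminescence signal; higher percent means less beta-gal luminescence so fewer parasites; stock transfer was 50 nL into about 50 µL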
Ecoli rRNA inh – reduced GFP signal of wild-type E. coli, primary screen, bacterial rRNA inhibitor project, GFP/RFP fluorescence, OD600, single point | E. coli WT GFP vs humanized-ribosome RFP mutants, 24 h; active compounds read low; DMSO median 0, no signal -100 | GFP signal change (wild-type ribosome), % (no concentration beside the values) | 350,000 compounds, 1.6% hits | AID 720706, 2013;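 active = significant combined selectivity score with lowered wild-type GFP, culture density cut under 30%, mutant RFP and density less affected; inactive = any of these conditions unmet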; note: one replicate is shown; some compounds called inactive have numbers as strong as hits
ALR H2O2 inh – inhibitors of human ALR sulfhydryl oxidase, primary screen, biochemical, H2O2 detection, HRP-luminol luminescence, single point | 290,000 compounds, 3.8% hits | inhibition, % (no concentration beside the values) | purified ALR, DTT oxidation | AID 485317, 2010 | FAD-linked sulfhydryl oxidase ALR (Homo sapiens), P55789;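 active = mean and each replicate at 75% or more; inconclusive = only one of the two met; inactive = neither met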;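 note: stock transfer was 7.5 nL into about 7.5 µL; 0% = neutral wells and 100% = wells with inactivated enzyme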
Target sequence (P55789 whole entry, looked up): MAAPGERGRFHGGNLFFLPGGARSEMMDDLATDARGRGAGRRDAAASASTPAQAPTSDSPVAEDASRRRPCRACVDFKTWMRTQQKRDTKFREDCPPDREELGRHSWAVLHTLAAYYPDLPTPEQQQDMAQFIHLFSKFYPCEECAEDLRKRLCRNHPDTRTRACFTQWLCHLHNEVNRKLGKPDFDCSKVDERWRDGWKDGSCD
Calb FLC – C. albicans growth inhibition with fluconazole, primary screen, CaCi-2 strain, Alamar Blue fluorescence; C. albicans CaCi-2 (fluconazole-resistant clinical isolate) + fluconazole, 48 h; growth inhibition, % (no concentration beside the values); 300,000 compounds, 0.57% hits;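 active = most replicates above 75%; inconclusive = exactly half above 75%; inactive = most below 75%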;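 note: all wells also contain fluconazole at 8 µg/ml as a sub-toxic cotreatment; 0% = median of DMSO wells and 100% = median of geldanamycin control wells; wells of about 8 µL received 7.5 nL stock; the first replicate is given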
Ecoli rRNA inh OD600 – recorded beside Ecoli rRNA inh, whose call it bears; OD600 change, %; measured here: OD600 growth;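 optical density of the mix in the first replicate; 0 = DMSO median and -100 = no signal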
Ecoli rRNA inh RFP – further read-out of Ecoli rRNA inh, marked with its call; RFP signal change, %; measured here: RFP humanized mutant strains;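 first replicate; 0 = DMSO median and -100 = no signal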
An asterisk follows results filed as active; ? = inconclusive; . = not tested or not shown. A portion of the library; count on the stated rates, not on these rows.

SMILES	LANA-H2B inh	B2AR ag	A1 inh	Beta apoptosis	T cruzi repl	Ecoli rRNA inh	Ecoli rRNA inh OD600	Ecoli rRNA inh RFP	ALR H2O2 inh	Calb FLC
O=C(COc1ccc2c(c1)CCC2)Nc1ccccn1	.	-3	0.0	-4	-10	-12	1	1.7	.	12
CCO[C@H]1OC(C(=O)N2CCN(C)CC2)=C[C@@H](c2ccc(Br)cc2)[C@@H]1CCCO	5.6	-5	-0.4	-6	0	-1	19	5.1	-3	4
COc1ccc(C(=O)N2CCC(C(=O)Nc3cccc(C)c3)CC2)cc1OC	0.4	4	0.2	-15	-15	-4	-4	-6.4	-2	0
Cc1cccc(C(=O)Nc2ccccc2C(=O)NCc2cccnc2)c1	2.9	-8	0.1	1	10	-2	-4	-1.6	-2	13
COC(=O)c1ccccc1NC(=O)c1cc2ccccc2o1	1.7	8	0.3	3	0	6	16	-0.7	.	-2
COc1cc(C(CCN2CCCC2)c2c(OC)cc(OC)c3c(-c4ccccc4)cc(=O)oc23)cc(OC)c1OC (centres undefined)	-4.1	-5	-0.2	-1	58*	1	-26	37	.	-15
CCCCCCn1c(=O)c(F)cn(Cc2ccc(OC)c([N+](=O)[O-])c2)c1=O	8.8	-9	1.5	-11	0	.	.	.	-2	3
CSc1ncccc1C(=O)OCC(=O)NCCCc1ccccc1	7.5	-2	-1.8	-7	.	.	.	.	.	.
COCCCNC(=O)CCN1N=C(c2ccccc2)CCC1=O	-2.3	0	0.0	0	-1	8	23	14	-6	4
COc1cccc(NC(=O)c2ccccc2Oc2ccccc2)c1	-2.2	-8	-0.1	-9	-2	-11	-22	-0.4	3	-1
O=C(COC(=O)CNC(=O)c1ccccc1Cl)Nc1cc(C(F)(F)F)ccc1Cl	5.2	0	0.3	-2	.	7	-1	0.1	4	.
Nc1cc(=O)[nH]c2nnc(SCC(=O)Nc3cccc4ccccc34)n12	12	-7	0.8	-2	5	-2	5	-2.6	4	6
Cc1cc(C)nc(SCCC(=O)Nc2ccccc2Cl)n1	1.5	-1	0.6	-3	-7	-18*	0.8*	-1.6*	2	-27
CC(=O)c1c(C)[nH]c(C(=O)OCC(=O)N(C)c2c(N)n(Cc3ccccc3)c(=O)[nH]c2=O)c1C	1.0	-3	1.0	1	-2	0	-6	1.5	-1	-1
CCOC(=O)c1ccc(NC2c3ccccc3C(=O)N2c2cccnc2)cc1 (centres undefined)	3.3	0	0.0	15	-90	-3	-18	7.1	-3	2
Cc1c(NC(=S)Nc2cccc(Cl)c2)c(=O)n(-c2ccccc2)n1C	-3.6	-2	0.6	2	-1	7	0	-1.9	13	-2
O=C(O)COc1ccc(-c2nc(-c3ccccc3)c(-c3ccccc3)[nH]2)cc1	-2.1	6	0.2	3	1	-9	6	4.2	99*	1
COc1ccccc1C(=O)C1CCCN(C(=O)c2ccc(C(C)=O)s2)C1 (centres undefined)	-4.5	6	-0.1	-2	-5	0	-4	-0.2	-7	4
COC(=O)Cc1cc(=O)oc2cc(OC)ccc12	67*	2	-0.8	-17	-16	8	1	-2.4	-3	14
O=C(c1cc(Br)ccc1Cl)N1CCN(c2ncccn2)CC1	-1.5	4	0.3	0	3	4	5	2.4	1	-7
CCCCn1nc(C(=O)NCC(c2cccs2)N2CCOCC2)c2ccccc2c1=O (centres undefined)	4.6	9	-0.5	0	.	-10	-23	-4.2	-4	.
Cn1c(=O)c2c(nc(Oc3ccccc3Cl)n2C)n(C)c1=O	4.0	1	1.7	-9	-4	6	4	1.1	-1	-7
COc1cc(NC(=S)N2CCCC2)cc(OC)c1	2.9	-1	0.4	0	.	7	16	0.8	-12	-9
CC(=O)NCC(=O)N1CCCC(C(=O)c2ccc(Oc3ccccc3)cc2)C1 (centres undefined)	0.4	-26	-0.2	-10	-12	-10	-15	-4.9	2	-6
COc1ccc(S(=O)(=O)N2CCC(O)(c3cccnc3)CC2)cc1OC	1.0	-6	1.1	-5	-9	15	14	3.2	-1	8

12 successive records out of the list so far:
SMILES	LANA-H2B inh	B2AR ag	A1 inh	Beta apoptosis	T cruzi repl	Ecoli rRNA inh	Ecoli rRNA inh OD600	Ecoli rRNA inh RFP	ALR H2O2 inh	Calb FLC
O=C(COc1ccc2c(c1)CCC2)Nc1ccccn1	.	-3	0.0	-4	-10	-12	1	1.7	.	12
CCO[C@H]1OC(C(=O)N2CCN(C)CC2)=C[C@@H](c2ccc(Br)cc2)[C@@H]1CCCO	5.6	-5	-0.4	-6	0	-1	19	5.1	-3	4
COc1ccc(C(=O)N2CCC(C(=O)Nc3cccc(C)c3)CC2)cc1OC	0.4	4	0.2	-15	-15	-4	-4	-6.4	-2	0
Cc1cccc(C(=O)Nc2ccccc2C(=O)NCc2cccnc2)c1	2.9	-8	0.1	1	10	-2	-4	-1.6	-2	13
COC(=O)c1ccccc1NC(=O)c1cc2ccccc2o1	1.7	8	0.3	3	0	6	16	-0.7	.	-2
COc1cc(C(CCN2CCCC2)c2c(OC)cc(OC)c3c(-c4ccccc4)cc(=O)oc23)cc(OC)c1OC (centres undefined)	-4.1	-5	-0.2	-1	58*	1	-26	37	.	-15
CCCCCCn1c(=O)c(F)cn(Cc2ccc(OC)c([N+](=O)[O-])c2)c1=O	8.8	-9	1.5	-11	0	.	.	.	-2	3
CSc1ncccc1C(=O)OCC(=O)NCCCc1ccccc1	7.5	-2	-1.8	-7	.	.	.	.	.	.
COCCCNC(=O)CCN1N=C(c2ccccc2)CCC1=O	-2.3	0	0.0	0	-1	8	23	14	-6	4
COc1cccc(NC(=O)c2ccccc2Oc2ccccc2)c1	-2.2	-8	-0.1	-9	-2	-11	-22	-0.4	3	-1
O=C(COC(=O)CNC(=O)c1ccccc1Cl)Nc1cc(C(F)(F)F)ccc1Cl	5.2	0	0.3	-2	.	7	-1	0.1	4	.
Nc1cc(=O)[nH]c2nnc(SCC(=O)Nc3cccc4ccccc34)n12	12	-7	0.8	-2	5	-2	5	-2.6	4	6

Further results.
SMILES	LANA-H2B inh	B2AR ag	A1 inh	Beta apoptosis	T cruzi repl	Ecoli rRNA inh	Ecoli rRNA inh OD600	Ecoli rRNA inh RFP	ALR H2O2 inh	Calb FLC
O=C(NCc1ccccc1)C(c1ccc(F)cc1)N(C(=O)c1csnn1)C1CCCC1 (centres undefined)	-2.0	2	0.4	3	2	4	4	-1.0	.	13
CC(C)C(=O)Nc1cc2c3c(c1)CCC(=O)N3CCC2	-0.4	5	-0.1	2	-2	1	10	-4.6	-28	1
CC(C)NCC(O)c1cc(O)cc(O)c1 (centres undefined)	-1.8	0	0.2	-7	2	.	.	.	.	.
COc1ccc(Cl)cc1NC(=O)NCCN1CCNC1=O	9.5	-4	-0.1	-5	0	17	10	1.8	-2	-2
CN(C)CCCNC(=O)CC(c1ccc(F)cc1)c1ccco1 (centres undefined)	-0.6	12	?	0	-7	.	.	.	-4	-15
CC(=O)C1=C(O)C(=O)OC1c1ccc(Cl)cc1 (centres undefined)	2.9	2	-0.1	-1	-5	-8	2	0.2	3	-1
CN1CCN(NC(=O)c2cc(-c3ccccn3)nc3ccccc23)CC1	-0.8	-6	?	-4	.	2	-11	-1.1	19	11
O=C(CCC(=O)N(CC(=O)NC1CCCCC1)c1ccc(F)cc1)Nc1ccccn1	-1.1	3	0.3	-4	9	10	7	-2.0	.	3
CCOc1ccc(-n2cc(C(=O)N3CCN(C)CC3)c3cc(OC)c(OC)cc3c2=O)cc1	-1.7	-3	0.2	1	8	.	.	.	-8	6
COc1ccc(C(=O)CNc2cccc(F)c2)cc1	1.1	-3	-1.5	2	-28	-1	-1	1.2	30	-4
CC(=O)Nc1ccc(Nc2cc(C)nc3c(-c4ccc(Cl)cc4)c(C)nn23)cc1	-4.2	11	0.8	.	46	.	.	.	-3	4
Cc1cccc(-c2noc(CSc3ccccc3)n2)c1	-0.8	-11	-4.5	.	2	.	.	.	-4	0
COCCc1nc2ccc(C(=O)N3CCCCC3COC)cc2o1 (centres undefined)	3.3	7	-0.5	-5	-10	7	7	0.1	-56	1
CSc1cc(-c2ccc(Cl)cc2)n(Cc2ccccc2)c(=O)c1C#N	0.8	18	3.0	9	13	.	.	.	-6	4
Cc1cc(=O)[nH]c(SCC(=O)N2CCCC(C)C2)n1 (centres undefined)	-0.7	5	1.8	-2	-7	3	12	-0.7	-10	-10
S=c1sc2c(Cl)ncnc2n1-c1ccccc1	.	103*	.	.	59*	-32	-33	0.8	.	51
CCOc1ccc(S(=O)(=O)Nc2cccc(C(=O)N3CCN(c4cccc(OC)c4)CC3)c2)cc1	1.2	-2	-0.5	3	25	2	-15	16	-6	0
C/C(CCc1ccc2c(c1)OCO2)=N\N=C(/N)SC1CC(=O)N(c2ccccc2F)C1=O (centres undefined)	-2.1	3	-0.6	-1	-36	.	.	.	-9	-3
Cc1cccc(Nc2nc(Cl)ncc2F)c1C	0.3	2	0.0	4	-15	5	5	-1.9	4	4
O=C1CCC(C(=O)N2CCCCCCC2)CN1Cc1cccc(C(F)(F)F)c1 (centres undefined)	0.1	3	0.6	-7	2	-7	-13	-0.4	2	4
NC[C@H](Cc1ccccc1)NCCCCC1CCCCC1	-1.9	-2	0.0	-2	.	-43	-43	-18	-3	.
COc1cc(/C=N/NC(=O)c2ccccc2O)ccc1OC(=O)CC1SC(=O)NC1=O (centres undefined)	3.3	4	-0.3	4	-6	1	6	-1.3	88*	0
O=C(COc1ccccc1O)NCCN1CCOCC1	-1.8	3	-0.6	-1	0	4	8	-0.1	41	0
N=c1n(CC(=O)c2ccc(Br)s2)c2ccccc2n1Cc1ccccc1	4.8	14	-0.4	26	24	-56	-81	-25	2	3
O=C(Nc1ccc(S(=O)(=O)N2CCOCC2)cc1)c1cc(S(=O)(=O)N2CCOCC2)ccc1Cl	6.6	-5	-0.8	8	-9	4	-8	-1.3	-6	-4
O=c1[nH]c(/C=C2\C=Nc3ccccc32)c(O)n1Cc1ccccc1F	3.9	16	0.1	13	-19	-9	2	6.1	.	19
CC1Sc2ccc(S(=O)(=O)NCc3ccccc3)cc2NC1=O (centres undefined)	-8.6	-5	0.2	-2	-9	-21*	-14*	1.5*	1	4
CC(C)CNC(=O)COC(=O)/C=C/c1ccccc1[N+](=O)[O-]	-1.3	2	0.1	-2	-18	.	.	.	2	-3

From PubChem BioAssay
